H5N1 CPE = antiviral screen in MDCK cells, H5N1 avian flu. cytopathic effect, luminescence, 72 h; hits give high values; no value below 0 was filed and about half of the inactive calls have no number; reference of the scale not given here. inhibition, % at 50 µM. 96,000 compounds, 0.07% hits. AID 740; in the data active = inhibition above about 25%
The depositor's hits bear a star; i = inactive; & = joins results of further samples.

SMILES | H5N1 CPE
CC1C(C#N)=C(N)OC2=C1C(=O)CC(C)(C)C2 (stereo unspecified) | i
CCOC(=O)c1ccc(N2C(=O)c3n[nH]c(C)c3C2c2ccccc2)cc1 (stereo unspecified) | 0.4
COC(=O)c1ccccc1NC(=O)N1c2ccccc2CC1C (stereo unspecified) | 0.4
Nc1nonc1-c1nc2ccccc2n1Cc1ccc(Cl)cc1 | i
O=c1c2ccccc2nc(CSc2nnnn2-c2ccccc2)n1-c1cccc(C(F)(F)F)c1 | i
CSCCC(C(=O)NCc1cccs1)N1C(=O)c2ccccc2C1=O (stereo unspecified) | i
Cn1nc(-c2ccc(Cl)cc2)nc2c(=O)n(C)c(=O)nc1-2 | i
Cc1ccccc1-n1c(CSC(=N)N)nc2ccccc2c1=O | 0.4
CCOC(=O)N1CCN(C(=O)c2oc3ccc(S(=O)(=O)N4CCCCCC4)cc3c2C)CC1 | 2.2
CCN(CC)CCCNC(=O)c1cc2c(=O)n(C)c3ccccc3c2n1C | 5.1
COc1cccc(C(=O)N(C)c2nnc(-c3ccncc3)s2)c1 | i
CC(C)C(c1nnnn1Cc1ccccc1)N1CCN(Cc2ccc3c(c2)OCO3)CC1 (stereo unspecified) | 0.5

2 neighbouring entries already listed, quoted:
SMILES | H5N1 CPE
CC1C(C#N)=C(N)OC2=C1C(=O)CC(C)(C)C2 (stereo unspecified) | i
CCOC(=O)c1ccc(N2C(=O)c3n[nH]c(C)c3C2c2ccccc2)cc1 (stereo unspecified) | 0.4

Returning to the listing with the five entries that preceded the break.
SMILES | H5N1 CPE
Cc1ccccc1-n1c(CSC(=N)N)nc2ccccc2c1=O | 0.4
CCOC(=O)N1CCN(C(=O)c2oc3ccc(S(=O)(=O)N4CCCCCC4)cc3c2C)CC1 | 2.2
CCN(CC)CCCNC(=O)c1cc2c(=O)n(C)c3ccccc3c2n1C | 5.1
COc1cccc(C(=O)N(C)c2nnc(-c3ccncc3)s2)c1 | i
CC(C)C(c1nnnn1Cc1ccccc1)N1CCN(Cc2ccc3c(c2)OCO3)CC1 (stereo unspecified) | 0.5
COc1ccc(C2=CC(=O)OC3(CCCC3)O2)cc1 | i
CCc1c(C)nc(N)n2c(SCC(=O)N3CCCc4ccccc43)nnc12 | 1.0
CCOC(=O)C1CCN(Cc2coc3ccc(Cl)cc3c2=O)CC1 | 0.6
Cc1ccc(NC(=O)COC(=O)c2ccc3c(c2)NC(=O)C2CCCN32)cc1 (stereo unspecified) | i
CC(C)C(c1nnnn1C1CCCCC1)N1CCOCC1 (stereo unspecified) | 0.1
Cc1ccc2c(c1)c1ncnc(N3CCN(c4ccccc4)CC3)c1n2C | i
Cc1c(C(=O)OC(C)C)sc(NC(=O)c2cccnc2)c1C#N | 1.6
CCCc1[nH]nc2c1C(C1CCCCC1)C(C#N)=C(N)O2 (stereo unspecified) | 1.0
Cn1c2c(c(=O)n(C)c1=O)C1c3ccccc3OCC1C(C)(C)O2 (stereo unspecified) | 0.1
O=C(CC(=O)NC1CCCCC1)N/N=C/c1ccc(Cl)cc1 | i
CCCCOc1ccc(C(=O)NCC(=O)OC2CCOC2=O)cc1 (stereo unspecified) | i
CCOC(=O)c1c(CN2CCOCC2)n(C)c2cc(Br)c(O)c(CN(C)C)c12 | 0.6&0.4
O=C(Nc1nc(-c2cccs2)cs1)c1cc2ccccc2oc1=O | 0.7
Cn1c(Cc2csc(N)n2)nnc1SCC(=O)NC1CCCCC1 | i
Cc1noc(C)c1C(=O)Nc1nnc(-c2ccccc2)s1 | i
O=C(c1ccc(S(=O)(=O)N2CCOCC2)cc1)N1CCN(c2ccccc2F)CC1 | 0.9
O=C(CS(=O)(=O)c1cn(Cc2ccc(F)cc2)c2ccccc12)N1CCCCC1 | 2.4
COc1cccc(Cn2c(NCc3cccnc3)nc3c2c(=O)n(C)c(=O)n3C)c1 | 2.6
O=C(Cn1c(C(=O)N2CCN(C3CCCCC3)CC2)cc2sccc21)c1ccccc1 | i
COc1ccc(C2C(=O)N(CCc3ccccc3)CC(=O)N2C2CCCC2)cc1 (stereo unspecified) | i
CC(C)Oc1ccccc1C1Nc2ccccc2C(=O)N1c1ccc2c(c1)OCCO2 (stereo unspecified) | i
CCCC(C(=O)NCC1CCCO1)N(Cc1ccco1)C(=O)CNS(=O)(=O)c1ccc(F)cc1 (stereo unspecified) | 0.1
COc1ccc(/C=N\NC(=O)CCN2CCN(c3ccccc3)CC2)cc1OC | i
O=C(OCCN1CCN(c2ncc(C(F)(F)F)cc2Cl)CC1)c1ccc(F)cc1 | 0.1
Cc1noc(C)c1S(=O)(=O)N1CCC(Cc2ccccc2)CC1 | 3.0
COc1ccc2c(C)c(C(=O)NCC(C)O)oc2c1OC (stereo unspecified) | i
O=C(CC(NCCc1ccccc1)C(=O)O)Nc1ccc(O)cc1 (stereo unspecified) | 0.1
O=C(Nc1ccon1)c1cnc2sccn2c1=O | i
CN1CCN(c2nc(-c3ccccc3)cc(C(F)(F)F)n2)CC1 | i
CCOC(=O)Nc1ccc2c(c1)ncn2C1CCCCC1 | 3.8
COC(=O)c1cccc(NC(=O)CN2CCOCC2)c1 | 0.4
COc1cccc(C(=O)OC2CCCN(C)C2)c1 (stereo unspecified) | i
O=C(NCCc1ccccc1)c1nc2ncccn2n1 | i
OC(COCC1COc2ccccc2O1)CN1CCc2ccccc2C1 (stereo unspecified) | i
O=C(NC(=O)c1ccc(Cl)c(Cl)c1)OC1CCS(=O)(=O)C1 (stereo unspecified) | 1.8
Cc1ccc(S(=O)(=O)NCc2nnc(SCC(=O)Nc3cccc(C)c3C)n2C)cc1 | 0.3

3 compounds out of the list, arranged by length of the SMILES, lowest first:
SMILES | H5N1 CPE
CC(C)C(c1nnnn1C1CCCCC1)N1CCOCC1 (stereo unspecified) | 0.1
Cc1noc(C)c1S(=O)(=O)N1CCC(Cc2ccccc2)CC1 | 3.0
CCOC(=O)N1CCN(C(=O)c2oc3ccc(S(=O)(=O)N4CCCCCC4)cc3c2C)CC1 | 2.2

(list continues)
SMILES | H5N1 CPE
Cc1ccc(NC(=O)C2CCCN(S(=O)(=O)c3c(C)noc3/C=C/N(C)C)C2)cc1F (stereo unspecified) | i
COc1ccccc1C1CC(c2ccc(C)cc2)Nc2ncnn21 (stereo unspecified) | 0.1
O=C(N/N=C1\CCCc2ccccc21)c1cccc([N+](=O)[O-])c1 | 0.1
CCc1ccc(NC(=O)CNC(=O)c2cn(-c3ccccc3OC)c(=O)c3ccccc23)cc1 | i
O=C(OCc1ccccc1)C1CCCN1C(=O)c1ccccc1[N+](=O)[O-] (stereo unspecified) | 0.4
CCOC(=O)C1=C(C)N=C2SC(CC)C(=O)N2C1c1cccc(F)c1 (stereo unspecified) | i
COc1ccc2[nH]c3nc(SCC(=O)Nc4ccc5c(c4)OCO5)nnc3c2c1 | 2.7
CCc1c(C)nc2ncnn2c1Nc1ccc(C#N)c(Cl)c1 | 0.0
COc1cc(C(O)P(=O)(OCC(C)C)OCC(C)C)cc(OC)c1OC (stereo unspecified) | 0.1
Cc1ccc(-c2nnc(COc3cccc(-n4cnnn4)c3)o2)cc1 | 2.5
CCC(C(=O)NC1CCCC1)N(Cc1ccco1)C(=O)Cn1nnc(-c2ccc(C)cc2)n1 (stereo unspecified) | i
O=C(Cn1cccc1C(=O)c1ccccc1)NCc1ccco1 | 2.6
COCCOC(=O)C(C#N)c1nc2ccccc2nc1N1CCCC1 (stereo unspecified) | i
CS(=O)(=O)N(CC(N)=O)c1ccc2c(c1)OCO2 | i
Cc1ccccc1Cn1cc(NC(=O)c2cc(-c3cccs3)on2)cn1 | i
COC(=O)c1cnc(SC)nc1C | i
FC(F)(F)C1CC(c2cccs2)Nc2ncnn21 (stereo unspecified) | 0.4
CCCc1oc2c(c(=O)c1CC)C(=O)CC(C)(C)C2 | i
CCC(C)NC(=O)CN(C)S(=O)(=O)c1ccc2c(c1)c(=O)n(C)c(=O)n2C (stereo unspecified) | 0.2
Cc1ccc(C)c2c1[nH]c1ccccc12 | i
Cc1ccc(-n2nnc3c(=O)n(CC(=O)N4CCCC4)cnc32)cc1 | i
O=C(CN(Cc1ccco1)C(=O)CNS(=O)(=O)c1ccccc1)NC1CCCCC1 | 0.9
COc1cccc2cc(C(C)N(CCCN3CCOCC3)C(=O)Nc3ccc(Cl)cc3)oc12 (stereo unspecified) | i
c1coc(CN2CCN(C(c3cccs3)c3nnnn3C3CCCC3)CC2)c1 (stereo unspecified) | 3.3
CC(O)Cc1nsc(NC(=O)c2ccc(Br)o2)n1 (stereo unspecified) | 0.3
CCOc1cc(CNC(=O)CN2C(=O)c3ccccc3S2(=O)=O)ccc1OC | 1.0
COc1ccc(S(=O)(=O)NCC(=O)N(CC(=O)NCC2CCCO2)c2c(C)cccc2C)cc1 (stereo unspecified) | 0.6
O=C1CC(=O)C(n2cncn2)C(c2c(F)cccc2Cl)C1 (stereo unspecified) | 1.4
CC(=O)NCC(=O)OCC(=O)c1ccc(C)cc1 | 0.3
c1ccc(-n2nnnc2-n2ccnc2)cc1 | 0.7
O=C(CSc1ncn(-c2ccccc2)n1)Nc1nc2ccccc2s1 | i
Cc1ccc(-c2cc(C(F)(F)F)n3nc(C(=O)NCCCn4ccnc4)cc3n2)cc1C | i
Cc1cc2cc(CCNC(=O)c3ccc(Br)o3)c(=O)[nH]c2cc1C | i
CN(CC(=O)NCc1cccnc1)S(=O)(=O)c1ccc2c(c1)c(=O)n(C)c(=O)n2C | 0.1
COC(=O)c1cc2ccsc2n1CC(=O)N1CCCc2ccccc21 | i
CCCCC(=O)Nc1ccc(NC(=O)c2cccnc2)cn1 | i

Four entries from above, with each value named:
COc1ccc(S(=O)(=O)NCC(=O)N(CC(=O)NCC2CCCO2)c2c(C)cccc2C)cc1 (stereo unspecified)
  H5N1 CPE: 0.6

c1ccc(-n2nnnc2-n2ccnc2)cc1
  H5N1 CPE: 0.7

Cc1ccc(-c2cc(C(F)(F)F)n3nc(C(=O)NCCCn4ccnc4)cc3n2)cc1C
  H5N1 CPE: i

CCCCC(=O)Nc1ccc(NC(=O)c2cccnc2)cn1
  H5N1 CPE: i

Continuation.
SMILES | H5N1 CPE
O=C(C1CCN(c2nnnn2-c2ccccc2)CC1)N1CCN(c2ccccc2)CC1 | 0.6
NC(=O)c1sc2nc(N3CCCCC3)c3c(c2c1N)CCCC3 | 0.5
CN(C)S(=O)(=O)c1cc(S(=O)(=O)N(C)C)c(Cl)cc1N | i
Cc1cc(C)cc(NC(=O)C2CCN(c3nccs3)CC2)c1 | 1.2
Cc1ccc(C)c(N2CCN(CC(=O)Nc3ccc4[nH]c(=O)[nH]c4c3)CC2)c1 | 0.4
CC(=O)Nc1sc(C)c(C)c1C(=O)Nc1ccc(C)cc1 | i
CCOc1cc(CNc2ccccc2SC)ccc1O | 2.2
Cc1ccc(CNC(=O)C2CCC(CNc3c(N4CCOCC4)c(=O)c3=O)CC2)cc1 (stereo unspecified) | 0.7
Cc1ccc2c(c1)CCCN2C(=O)c1ccoc1C | 0.8
Brc1cccc(C2CC(c3ccccc3)n3nnnc3N2)c1 (stereo unspecified) | 2.9
O=S1(=O)CC(O)C(NCc2ccco2)C1 (stereo unspecified) | i
COc1ccc(-c2nc(N)ncc2-c2csc(C)n2)c(O)c1 | 0.1
O=C1c2ccccc2C(Nc2ccc(S(=O)(=O)N3CCCCCC3)cc2)N1c1ccccn1 (stereo unspecified) | i
Cc1cc(Nc2c(C)cccc2C)n2nc(C)nc2n1 | 0.8
CCc1ccc(N2CC(C(=O)Nc3nnc(CC)s3)CC2=O)cc1 (stereo unspecified) | i
CC(=O)Nc1cccc(NC(=O)CSc2nnnn2C(C)C)c1 | i
CN(C)c1nc(N)nc(-c2nc3ccccc3s2)n1 | i
Cn1c(=O)[nH]c(=O)c2c1nc(CN1CCN(c3ccccc3F)CC1)n2CC(N)=O | 0.1
O=C(c1cc2ccccn2n1)N1CCC2(CC1)OCCO2 | 0.3
CC(=O)N1CCCc2cc(S(=O)(=O)N(CC(C)C)CC(C)C)ccc21 | 0.8
CCOC(=O)N1CCN(C2CC(=O)N(c3ccccc3)C2=O)CC1 (stereo unspecified) | 0.3
Cc1cc(NC(=O)CSc2ncnc3ccccc23)no1 | 2.6
c1ccc(Nc2nc3ccccc3n3cnnc23)cc1 | 2.3
Cc1cc(C)cc(OCC(O)CN2C(=O)NC(C)(C)C2=O)c1 (stereo unspecified) | 1.0
O=C1CC(N2CCN(C/C=C/c3ccccc3)CC2)C(=O)N1CCc1ccccc1 (stereo unspecified) | i
c1ccc(-n2cnc3cc(NCc4ccncc4)ccc32)cc1 | 0.6
CSc1nnnn1-c1cccc(O)c1 | i
Cc1ccccc1CS(=O)(=O)Cc1ccc(C(=O)NCCCN2CCCC2=O)o1 | 0.5
CCOC(=O)C1=C(C)NC(=O)NC1c1ccc(Br)s1 (stereo unspecified) | i
C=CCn1c(COc2cccc3cccnc23)nnc1SCC(=O)O | i
Cc1cc(C)nc(Nc2nc3ccccc3[nH]2)n1 | 10.3
CCC(=O)N1C(C(=O)NCc2ccc(OC)cc2)CSC1c1ccc(OC)cc1 (stereo unspecified) | 1.1
CCOc1ccc(-c2nnn(CC(=O)N3CCN(c4ccc(OC)cc4)CC3)n2)cc1OCC | 0.3
CCOC(=O)c1ccc(NS(=O)(=O)c2cc(-c3nnnn3C(C)C)ccc2OC)cc1 | 0.8
CC1(C)Cc2c(c(N3CCOCC3)nc3sc4c(N5CCOCC5)nnnc4c23)CS1 | 0.3
CN(C)CCNC(=O)c1cc2cc(Br)ccc2oc1=O | 0.3
CCCn1c(=O)c2ccccc2n2c(SCCOc3ccccc3F)nnc12 | 3.0
COc1ccccc1Nc1nc(NCCO)c2ccccc2n1 | 0.6
Cc1cccc(C)c1NC(=O)CCCSc1nnc(-c2ccco2)o1 | i
O=C(NC(=S)Nc1ccc2c(c1)OCCO2)c1ccccc1 | 0.3
O=C(Cc1cccs1)N1CCN(c2nc(-c3ccc(Cl)cc3)cs2)CC1 | i
COc1ccc(-c2nnc(-c3ccc(OCC(C)C)cc3)o2)cc1 | i
Cc1ccc(NC(=O)C(CC(C)C)NC(=O)C2CCC(C)CC2)nc1 (stereo unspecified) | i
Cc1cc(C)n(CCCNC(=O)c2ccc3c(c2)NC(=O)CS3)n1 | 0.4

Source: PubChem

Some of the compounds tested; count on the stated rates, not on these rows.
